Screening results: PubChem, several laboratories
Ecoli rRNA inh: inhibits bacterial ribosomal RNA function over humanized ribosomes; E. coli WT GFP vs humanized-ribosome RFP mutants, fluorescence, 24 h; active compounds read low; DMSO median 0, no signal -100; GFP signal change (wild-type ribosome), % (concentration not given with the values); 350,000 tested, 1.6% active;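 active means significant combined selectivity score with lowered wild-type GFP, culture density cut under 30%, mutant RFP and density less affected; inactive means any of these conditions unmet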; further: one replicate is shown; some compounds called inactive have numbers as strong as hits
LANA-H2B inh: blocks KSHV LANA binding to histone H2A/H2B | AID 2629 | inhibition, % (concentration not given with the values) | 320,000 tested, 0.6% active | cell-free LANA-H2A/H2B peptide, fluorescence polarization | Q9QR71; in the data active means inhibition mostly above about 10%, no sharp cut-off; inactive means mostly below about 6.7%;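 further: stock transfer was 7.5 nL into about 10 µL; 0% = median of vehicle wells and 100% = median of positive control wells; one replicate is shown; the record names a cut of 25% in any replicate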
Target sequence (Q9QR71 whole entry, looked up): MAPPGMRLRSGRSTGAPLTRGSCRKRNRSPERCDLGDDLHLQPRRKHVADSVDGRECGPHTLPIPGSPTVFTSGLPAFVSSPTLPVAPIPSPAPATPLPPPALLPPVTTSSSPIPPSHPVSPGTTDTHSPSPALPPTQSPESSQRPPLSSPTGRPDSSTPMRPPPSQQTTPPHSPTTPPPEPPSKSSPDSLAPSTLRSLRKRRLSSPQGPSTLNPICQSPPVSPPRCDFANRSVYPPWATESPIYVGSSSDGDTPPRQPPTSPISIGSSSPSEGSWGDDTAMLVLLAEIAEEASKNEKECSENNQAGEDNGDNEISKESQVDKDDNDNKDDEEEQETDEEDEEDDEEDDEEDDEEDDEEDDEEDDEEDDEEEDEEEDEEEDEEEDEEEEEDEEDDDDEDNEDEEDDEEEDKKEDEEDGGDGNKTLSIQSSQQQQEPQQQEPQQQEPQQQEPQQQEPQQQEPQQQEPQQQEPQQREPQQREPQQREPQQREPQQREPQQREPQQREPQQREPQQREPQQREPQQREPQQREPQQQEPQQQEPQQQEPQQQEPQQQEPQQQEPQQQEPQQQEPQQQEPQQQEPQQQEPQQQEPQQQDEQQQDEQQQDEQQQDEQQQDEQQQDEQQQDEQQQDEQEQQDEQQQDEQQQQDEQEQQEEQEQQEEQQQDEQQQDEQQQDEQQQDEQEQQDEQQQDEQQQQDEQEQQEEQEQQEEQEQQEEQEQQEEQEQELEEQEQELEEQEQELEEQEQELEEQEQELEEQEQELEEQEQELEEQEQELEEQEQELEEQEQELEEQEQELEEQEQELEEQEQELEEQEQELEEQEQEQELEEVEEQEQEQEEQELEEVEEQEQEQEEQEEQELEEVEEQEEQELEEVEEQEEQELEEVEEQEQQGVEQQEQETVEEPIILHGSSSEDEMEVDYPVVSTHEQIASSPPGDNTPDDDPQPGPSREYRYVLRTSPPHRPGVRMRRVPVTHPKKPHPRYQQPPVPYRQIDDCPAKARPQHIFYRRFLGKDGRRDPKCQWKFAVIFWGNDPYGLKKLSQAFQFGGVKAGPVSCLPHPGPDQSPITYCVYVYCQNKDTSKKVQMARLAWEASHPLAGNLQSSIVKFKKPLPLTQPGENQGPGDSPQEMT
A1 inh: inhibitors of the anti-apoptotic protein A1, read as caspase activation | MEF A1-2A-BIM cells, Caspase-Glo 3/7 luminescence, 3 h; percent of clofoctol response, vehicle zero | 330,000 tested, 0.066% active | caspase activation, % (no concentration beside the values);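 active means over half of replicate activation scores above 10%, or exactly half above 10 with the replicate mean above 10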;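 further: wells of about 30 µL received 50 nL stock; many hits fall short of the cut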
Beta2AR agonist: human beta-2 adrenergic receptor agonism by FAP. P07550. Am2.2-beta2AR cells, FAP receptor internalization, flow cytometry; reference of the scale not given here. response, % (concentration not given with the values). 340,000 tested, 0.43% active;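 active means response above a set limit, near 3 SD of response in nonfluorescent compounds, cut at about 42% in these data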;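 further: stock transfer was 100 nL into about 11 µL; a reference agonist was the positive control; negative values mostly stem from fluorescent compounds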
ALR H2O2 inh: inhibitors of human sulfhydryl oxidase ALR; purified ALR, DTT oxidation, H2O2 HRP-luminol luminescence; inhibition, % (no concentration beside the values); 290,000 tested, 3.8% active; AID 485317;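 active means mean and each replicate at 75% or more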;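 further: stock transfer was 7.5 nL into about 7.5 µL; 0% = neutral wells and 100% = wells with inactivated enzyme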
Calb FLC: C. albicans growth modulation with fluconazole; AID 1979; C. albicans CaCi-2 (fluconazole-resistant clinical isolate) + fluconazole, Alamar Blue growth, 48 h; growth inhibition, % (test concentration not listed); 300,000 tested, 0.57% active;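 active means most replicates above 75%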;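 further: all wells also contain fluconazole at 8 µg/ml as a sub-toxic cotreatment; 0% = median of DMSO wells and 100% = median of geldanamycin control wells; wells of about 8 µL received 7.5 nL stock; the first replicate is given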
T cruzi inh: T. cruzi replication inhibition | T. cruzi beta-gal in NIH3T3, luminescence, 90 h | inhibition, % (test concentration not listed) | 300,000 tested, 1.4% active | AID 1885;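 active means mean inhibition across valid replicates above about 55%, limit read from the data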;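 further: signal also drops with host cell toxicity which is not excluded here; 0% = plate median of DMSO wells and 100% = zero luminescence signal; higher percent means less beta-gal luminescence so fewer parasites; stock transfer was 50 nL into about 50 µL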
Beta apoptosis: beta cell apoptosis inhibition; INS-1E cytokine-induced death, ATP luminescence, 48 h; percent of positive-control rescue, neutral wells zero; 300,000 tested, 0.8% active; protection from apoptosis, % (concentration not given with the values);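 active means all replicates at 75% or more, or half of them and the mean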;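 further: 0% = cytokine-treated negative control wells and 100% = positive control rescue; higher means more ATP so stronger rescue from cytokine killing; wells of about 40 µL received 100 nL stock; the first replicate is given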
Ecoli rRNA inh OD600: also measured in Ecoli rRNA inh; calls as there; OD600 change, %; measured here: OD600 growth;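 optical density of the mix in the first replicate; 0 = DMSO median and -100 = no signal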
Ecoli rRNA inh RFP: also measured in Ecoli rRNA inh; calls as there; RFP signal change, %; measured here: RFP humanized mutant strains;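 first replicate; 0 = DMSO median and -100 = no signal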
Numbers without * were called inactive; x = not tested or not shown. The list is partial; count on the stated rates, not on these rows.

#	mol	Ecoli rRNA inh	Ecoli rRNA inh OD600	Ecoli rRNA inh RFP	LANA-H2B inh	A1 inh
1	CCCN(CC(=O)Nc1ccccc1C)C(=O)C1CCN(c2ncnc3sc(C)c(C)c23)CC1	-5	-32	7.2	1.5	-0.8
2	CS(=O)(=O)c1ccc(C(=O)NCCN2C(=O)S/C(=C\c3cccnc3)C2=O)cc1[N+](=O)[O-]	4	7	2.5	6.3	-0.4
3	COc1ccc(-n2c(O)c(C=NCC(c3ccco3)N3CCCC3)c3ccccc3c2=O)cc1OC (centres undefined)	x	x	x	3.4	-0.2
4	COc1cc(C(=O)OC(C)c2ccc(F)cc2)ccc1OCC(=O)N1CCOCC1 (centres undefined)	-1	5	7.3	-2.9	-0.7
5	COc1nccnc1NS(=O)(=O)c1ccc(N=Cc2c(C)[nH]n(-c3ccc(Cl)cc3)c2=O)cc1	2	-6	-1.7	1.5	-9.5
6	CN1CCN(c2ccc(NC(=O)c3ccco3)cc2Cl)CC1	9	13	1.8	-0.5	-6.7
7	O=C(CCNS(=O)(=O)c1ccccc1C(F)(F)F)N1CCN(S(=O)(=O)c2cccc(F)c2)CC1	-4	-10	2.0	-3.9	-0.4
8	COc1ccc(C(=O)NCCOc2cccc(OC)c2)cc1	4	5	0.7	-2.0	0.1
9	COc1ccc(CC(=O)N2N=C(C)CC2(O)c2cccnc2)cc1OC (centres undefined)	3	10	0.8	3.9	1.0
10	CCOc1ccccc1CN1CCN(CCCc2ccccc2)CC1CCO (centres undefined)	-5	-3	-2.5	0.5	0.8
11	Cc1cc([N+](=O)[O-])cc2c1NC(=O)C2(O)N1CCOCC1 (centres undefined)	1	9	0.6	58*	0.5
12	c1ccc(OCCCCN2CCCCC2)cc1	6	9	-0.1	0.9	0.7

#	Beta2AR agonist	ALR H2O2 inh	Calb FLC	T cruzi inh	Beta apoptosis
1	15	-2	2	2	9
2	-3	100*	21	-6	x
3	13	-7	-6	8	3
4	-3	4	x	x	-8
5	x	9	-20	7	4
6	29	0	9	22	-7
7	5	6	5	-2	-1
8	-4	-2	6	-7	0
9	-15	50	2	-8	-8
10	-4	1	-2	-10	-4
11	4	-39	-3	-7	6
12	0	7	-21	-14	-6

Given as tab-separated lines: 9 of the compounds above.
no.	Molecule	Ecoli rRNA inh	Ecoli rRNA inh OD600	Ecoli rRNA inh RFP	LANA-H2B inh	A1 inh	Beta2AR agonist	ALR H2O2 inh	Calb FLC	T cruzi inh	Beta apoptosis
1	CCCN(CC(=O)Nc1ccccc1C)C(=O)C1CCN(c2ncnc3sc(C)c(C)c23)CC1	-5	-32	7.2	1.5	-0.8	15	-2	2	2	9
2	CS(=O)(=O)c1ccc(C(=O)NCCN2C(=O)S/C(=C\c3cccnc3)C2=O)cc1[N+](=O)[O-]	4	7	2.5	6.3	-0.4	-3	100*	21	-6	x
3	COc1ccc(-n2c(O)c(C=NCC(c3ccco3)N3CCCC3)c3ccccc3c2=O)cc1OC (centres undefined)	x	x	x	3.4	-0.2	13	-7	-6	8	3
4	COc1cc(C(=O)OC(C)c2ccc(F)cc2)ccc1OCC(=O)N1CCOCC1 (centres undefined)	-1	5	7.3	-2.9	-0.7	-3	4	x	x	-8
5	COc1nccnc1NS(=O)(=O)c1ccc(N=Cc2c(C)[nH]n(-c3ccc(Cl)cc3)c2=O)cc1	2	-6	-1.7	1.5	-9.5	x	9	-20	7	4
6	CN1CCN(c2ccc(NC(=O)c3ccco3)cc2Cl)CC1	9	13	1.8	-0.5	-6.7	29	0	9	22	-7
7	O=C(CCNS(=O)(=O)c1ccccc1C(F)(F)F)N1CCN(S(=O)(=O)c2cccc(F)c2)CC1	-4	-10	2.0	-3.9	-0.4	5	6	5	-2	-1
8	COc1ccc(C(=O)NCCOc2cccc(OC)c2)cc1	4	5	0.7	-2.0	0.1	-4	-2	6	-7	0
9	COc1ccc(CC(=O)N2N=C(C)CC2(O)c2cccnc2)cc1OC (centres undefined)	3	10	0.8	3.9	1.0	-15	50	2	-8	-8

Continuation.
#	mol	Ecoli rRNA inh	Ecoli rRNA inh OD600	Ecoli rRNA inh RFP	LANA-H2B inh	A1 inh
13	Cn1c(=O)oc2cc(S(=O)(=O)Nc3ccccc3)ccc21	3	4	-0.1	4.7	-0.3
14	CCc1cc2c(=O)c(-c3cscn3)coc2c(CN(C)C)c1O	x	x	x	-0.7	0.3
15	C=CCN(c1ccc(C(=O)NCCCn2ccnc2)cc1)S(C)(=O)=O	16	9	-2.2	-3.8	0.7
16	Cc1cccc(-n2c(SC(C)C(=O)O)nc3sc4c(c3c2=O)CCCC4)c1 (centres undefined)	-2	0	1.9	3.3	-0.4
17	CCCCN(C(=O)C1=NN(c2ccccc2)C(=O)CC1)c1c(N)n(CCC)c(=O)[nH]c1=O	8	10	13	-6.7	-1.0
18	CCCCOC(=O)Nc1nnc(COc2ccccc2)s1	x	x	x	-0.7	0.6
19	c1csc(Cc2nc3ccccc3[nH]2)c1	-17	-5	-2.7	6.0	-1.5
20	NC(=O)c1ccc(NC(=O)c2ccc(CN3CCOCC3)cc2)cc1	x	x	x	-0.8	0.7
21	O=Cc1[nH]c2ccccc2c1N(C(=O)CCl)c1ccc([N+](=O)[O-])cc1	-55*	-32*	-13*	-0.6	-0.8
22	Cc1cc(C)c(NC(=O)CNC(=O)COC(=O)C2=COCCO2)c(C)c1	0	6	-3.9	-2.3	1.1
23	CCCCC1CCCC12NC(=O)NC2=O (centres undefined)	4	6	3.6	-1.2	0.3
24	Cn1c(=O)c(NCCc2ccccc2)c2c3c(cccc31)C(=O)c1ccccc1-2	x	x	x	128*	0.0

#	Beta2AR agonist	ALR H2O2 inh	Calb FLC	T cruzi inh	Beta apoptosis
13	-8	-1	-15	0	0
14	0	11	25	-1	3
15	5	x	4	-4	1
16	-2	10	11	-16	1
17	-3	-4	x	x	-4
18	1	2	0	-23	4
19	-6	1	-28	10	-5
20	5	-7	-2	-9	-4
21	22	99*	13	0	9
22	-3	4	x	-9	-1
23	-4	-2	-2	-15	-7
24	x	-32	21	34	-5

(cont.)
#	mol	Ecoli rRNA inh	Ecoli rRNA inh OD600	Ecoli rRNA inh RFP	LANA-H2B inh	A1 inh
25	COc1ccc(NC(=O)c2ccco2)cc1NC(=O)c1ccccc1	-4	-12	-1.3	x	x
26	O=C1CC(Sc2ccc(Cl)cc2)C(=O)N1Cc1ccncc1 (centres undefined)	0	-1	2.3	-4.0	-0.1
27	CCOc1ccc2nc(N(CCN(C)C)C(=O)c3cc4ccccc4cc3OC)sc2c1	x	x	x	4.1	0.1
28	Cc1nn(C)c(C)c1S(=O)(=O)N(CC(=O)NCCCN1CCC(C)CC1)c1ccc(C(C)C)cc1	11	22	5.7	-1.3	-1.2
29	Cc1cc(C(=O)OCC(=O)NNC(=O)c2cccs2)ccc1[N+](=O)[O-]	3	8	-2.9	7.2	0.0
30	CCCc1nc2c(s1)CCc1onc(-c3ccc(Br)cc3)c1-2	12	-3	-6.3	0.5	-0.2
31	CCN1CCCC1CNC(=O)Cn1cnc2ccc(S(=O)(=O)N3CCC(C)CC3)cc2c1=O (centres undefined)	x	x	x	-1.2	0.1
32	N#CCCN(C(=O)CN1c2cccc3cccc(c23)S1(=O)=O)c1ccccc1	6	0	4.4	-3.0	1.7
33	CCc1ccccc1NC(=O)CNC(=O)CCc1nc2sc3c(c2c(=O)[nH]1)CCCC3	11	10	2.8	2.9	1.2
34	O=C1COc2ccc(C(=O)CSc3ccccc3C(=O)O)cc2N1	11	8	2.4	4.7	0.5
35	COC(=O)C1=C(N)OC2=C(C(=O)CC(C)(C)C2)C1c1ccoc1 (centres undefined)	x	x	x	4.0	0.8
36	Cc1ccc(NC(=S)NC(NC(=O)c2ccco2)C(Cl)(Cl)Cl)cc1 (centres undefined)	x	x	x	-2.5	-0.8

#	Beta2AR agonist	ALR H2O2 inh	Calb FLC	T cruzi inh	Beta apoptosis
25	-20	x	5	-10	x
26	3	56	-2	31	1
27	2	-11	0	23	0
28	9	5	28	10	1
29	0	-11	6	-4	-2
30	5	42	0	-1	1
31	5	-3	-5	2	-4
32	2	-12	x	x	1
33	0	-6	7	-8	x
34	0	4	-4	-15	2
35	2	10	-3	-14	-2
36	-1	4	-3	3	2

(cont.)
#	mol	Ecoli rRNA inh	Ecoli rRNA inh OD600	Ecoli rRNA inh RFP	LANA-H2B inh	A1 inh
37	CCCn1nnnc1NCc1ccc(OC)cc1	2	0	-3.1	-1.9	0.5
38	COc1ccc(C(=O)/C=C2/C(=O)Nc3ccccc32)cc1	8	8	2.3	-2.6	1.6
39	CC(OC(=O)c1nn(C)c(=O)c2ccccc12)C(=O)NC1CCCCC1C (centres undefined)	12	11	-3.3	-1.6	0.5
40	CO/N=C\CC(=O)Nc1ccc(Cl)cc1Cl	14	14	-0.9	5.5	0.1
41	Cc1ccccc1CSCCNC(=O)CSCc1ccc([N+](=O)[O-])cc1	x	x	x	0.4	0.7
42	C(=N\c1nccs1)/c1c[nH]c2ccccc12	x	x	x	0.2	0.3
43	CCN1C(=NCc2cc(OC)c(OC)c(OC)c2)N[C@@H](c2ccccc2)[C@H](C(=O)OC)[C@H]1C	x	x	x	5.6	1.6
44	N#CC(C#N)=Cc1ccc(NC(=O)c2ccc(Br)cc2)cc1	3	6	-1.9	-0.2	-0.1
45	COc1ccc(/C=C/C(=O)NC(=S)NNC(=O)c2ccco2)cc1OC	9	2	7.9	5.1	0.3
46	C=CCN=C1S/C(=C\c2ccc(N(C)C)cc2)C(=O)N1CC=C	x	x	x	16*	-0.7
47	Cn1c(/C=C/c2ccccc2)nc2ccccc21	-24*	1.1*	-5.3*	-3.6	-8.7
48	O=[N+]([O-])c1cccc(N/N=C/c2cccc(O)c2O)c1	-8	2	-7.6	-0.5	0.1

#	Beta2AR agonist	ALR H2O2 inh	Calb FLC	T cruzi inh	Beta apoptosis
37	-2	-1	2	-6	-5
38	45*	30	10	-4	2
39	1	2	10	-3	-1
40	-16	-5	7	-21	-7
41	2	99*	-46	5	-3
42	7	-50	5	-9	-8
43	x	-3	-28	9	-4
44	7	-6	-4	-10	10
45	9	85*	3	-7	-4
46	-10	48	-45	11	-7
47	-20	x	11	-22	43
48	10	100*	-1	35	12

A few values from above.
#44 – Calb FLC: -4
#22 – ALR H2O2 inh: 4

The results go on.
#	mol	Ecoli rRNA inh	Ecoli rRNA inh OD600	Ecoli rRNA inh RFP	LANA-H2B inh	A1 inh
49	c1ccc(-c2ccccc2-n2cnnn2)cc1	x	x	x	-2.6	-0.7
50	Nc1c(C(=O)c2ccccc2)oc2ccc([N+](=O)[O-])cc12	-14	-3	-0.6	4.6	-0.8
51	O=C(COC(=O)c1c(Cl)cccc1Cl)Nc1cccc(S(=O)(=O)NC2=NCCCCC2)c1	-13	-9	0.6	-3.5	0.7
52	CCN(Cc1ccccc1)C(=O)c1cccc(S(=O)(=O)N2CCN(c3ccccc3)CC2)c1	-12	-9	5.7	1.0	0.0
53	Cc1ccc(S(=O)(=O)NCc2ccccc2)cc1	2	3	0.3	1.7	-0.2
54	CC(C(=O)NC(N)=O)N1C(=O)NC(c2ccccc2)(c2ccccc2)C1=O (centres undefined)	1	7	-1.1	-0.5	-0.1

#	Beta2AR agonist	ALR H2O2 inh	Calb FLC	T cruzi inh	Beta apoptosis
49	1	-29	-10	0	-11
50	3	-1	1	12	2
51	3	x	x	x	0
52	6	-1	3	12	6
53	2	-9	7	-10	4
54	11	x	-1	5	1
